# Bioassay records (PubChem BioAssay)
# Ecoli rRNA inh: selective bacterial rRNA inhibition in E. coli; E. coli WT GFP vs humanized-ribosome RFP mutants, fluorescence, 24 h; hits give low values; DMSO median 0, no signal -100; GFP signal change (wild-type ribosome), % (no concentration beside the values); 1.6% of 350,000 active; AID 720706;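 active = significant combined selectivity score with lowered wild-type GFP, culture density cut under 30%, mutant RFP and density less affected; inactive = any of these conditions unmet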; also: one replicate is shown; some compounds called inactive have numbers as strong as hits
# A1 inh: inhibitors of the anti-apoptotic protein A1, read as caspase activation; MEF A1-2A-BIM cells, Caspase-Glo 3/7 luminescence, 3 h; percent of clofoctol response, vehicle zero; caspase activation, % (test concentration not listed); 0.066% of 330,000 active; AID 2462;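 active = over half of replicate activation scores above 10%, or exactly half above 10 with the replicate mean above 10; inconclusive = replicate mean below 10 yet half the replicates above 10; inactive = over half of replicates below 10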;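 also: wells of about 30 µL received 50 nL stock; many hits fall short of the cut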
# Calb FLC: affects C. albicans growth with fluconazole. 0.57% of 300,000 active. AID 1979. C. albicans CaCi-2 (fluconazole-resistant clinical isolate) + fluconazole, Alamar Blue growth, 48 h. growth inhibition, % (test concentration not listed);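 active = most replicates above 75%; inconclusive = exactly half above 75%; inactive = most below 75%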;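 also: all wells also contain fluconazole at 8 µg/ml as a sub-toxic cotreatment; 0% = median of DMSO wells and 100% = median of geldanamycin control wells; wells of about 8 µL received 7.5 nL stock; the first replicate is given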
# Beta cell apopt: beta cell apoptosis inhibition. protection from apoptosis, % (concentration not given with the values). INS-1E cytokine-induced death, ATP luminescence, 48 h; percent of positive-control rescue, neutral wells zero. 0.8% of 300,000 active. AID 435005;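 active = all replicates at 75% or more, or half of them and the mean; inconclusive = half reach 75% but not the mean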;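 also: 0% = cytokine-treated negative control wells and 100% = positive control rescue; higher means more ATP so stronger rescue from cytokine killing; wells of about 40 µL received 100 nL stock; the first replicate is given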
# T cruzi inh: T. cruzi replication inhibition; inhibition, % (test concentration not listed); AID 1885; T. cruzi beta-gal in NIH3T3, luminescence, 90 h; 1.4% of 300,000 active;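 active = mean inhibition across valid replicates above about 55%, limit read from the data; inconclusive = mean below that limit but half or more replicates reach it; inactive = mean below it, under half of replicates reach it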;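 also: signal also drops with host cell toxicity which is not excluded here; 0% = plate median of DMSO wells and 100% = zero luminescence signal; higher percent means less beta-gal luminescence so fewer parasites; stock transfer was 50 nL into about 50 µL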
# Vif A3G: inhibitors of Vif binding to APOBEC3G peptide, primary screen, biochemical, TR-FRET, GST-Vif 1-94, biotin-A3G peptide, dose response retest (AID 1117319) | inhibition, %, or IC50 in µM where a hit was titrated | TR-FRET GST-Vif / biotin-A3G peptide binding; higher % means a stronger effect; test concentration not given here; strong numbers were not always called active | 0.57% of 260,000 active;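 active = above the screen mean plus three standard deviations and confirmed in dose response; inconclusive = results disagree or hit not tested in dose response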;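 also: Vif residues 1-94 fused to GST binding biotinylated APOBEC3G peptide 110-148; 0% = full assay without inhibitor and 100% = GST in place of GST-Vif; retest series ran down from 100 µM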
# RanGTP-Impb inh: inhibitors of RanGTP-importin-beta interaction, primary screen, biochemical, FRET, CFP-Ran, YFP-importin-beta, homogeneous; inhibition, % (concentration not given with the values); cell-free CFP-Ran/YFP-importin-beta FRET ratio; 1.1% of 300,000 active;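 active = most replicates above 15%; inconclusive = exactly half above 15%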;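 also: 0% = DMSO wells and 100% = Ran loaded with GDP instead of GTP; wells of about 40 µL received 100 nL stock; the first replicate is given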
# MLL AF4-AF9 inh: blocks AF4 peptide binding to human AF9; AlphaScreen, biotin-AF4 peptide binding to FLAG-AF9; inhibition, % at 10 µM; 0.47% of 350,000 active; AID 651704;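 active = every replicate reaching a set inhibition limit, whatever the replicate mean, cut at about 25% in these data; inconclusive = mean inhibition reaches that limit but some replicates miss it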;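 also: 0% = plate neutral control median and 100% = total signal loss; the record names both 10 and 1 µM as test concentration; the first replicate is given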
# Target sequence (P42568 whole entry, looked up): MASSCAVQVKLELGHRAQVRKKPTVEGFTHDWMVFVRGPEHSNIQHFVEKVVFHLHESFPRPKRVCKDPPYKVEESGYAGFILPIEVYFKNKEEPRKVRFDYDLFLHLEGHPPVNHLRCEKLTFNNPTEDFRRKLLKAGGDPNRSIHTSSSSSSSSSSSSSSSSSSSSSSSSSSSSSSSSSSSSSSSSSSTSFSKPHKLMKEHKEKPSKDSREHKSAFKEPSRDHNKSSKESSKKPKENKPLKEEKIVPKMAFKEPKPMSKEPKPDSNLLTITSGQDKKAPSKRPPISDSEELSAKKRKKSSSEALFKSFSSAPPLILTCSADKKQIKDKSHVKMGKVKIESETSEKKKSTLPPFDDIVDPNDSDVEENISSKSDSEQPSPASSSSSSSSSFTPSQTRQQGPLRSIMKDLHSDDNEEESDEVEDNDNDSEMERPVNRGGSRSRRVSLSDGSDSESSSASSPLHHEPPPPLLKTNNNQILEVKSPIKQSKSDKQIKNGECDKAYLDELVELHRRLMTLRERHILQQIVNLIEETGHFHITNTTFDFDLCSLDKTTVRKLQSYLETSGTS
# Ecoli rRNA inh OD600: further read-out of Ecoli rRNA inh, marked with its call; OD600 change, %; measured here: OD600 growth;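 optical density of the mix in the first replicate; 0 = DMSO median and -100 = no signal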
# Ecoli rRNA inh RFP: recorded beside Ecoli rRNA inh, whose call it bears; RFP signal change, %; measured here: RFP humanized mutant strains;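 first replicate; 0 = DMSO median and -100 = no signal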
# * marks the source's active call; other numbers are inactive results; ? = inconclusive; . = no result given; & = joins results of further samples. A portion of the library; count on the stated rates, not on these rows.
SMILES,Ecoli rRNA inh,Ecoli rRNA inh OD600,Ecoli rRNA inh RFP,A1 inh,Calb FLC,Beta cell apopt,T cruzi inh,Vif A3G,RanGTP-Impb inh,MLL AF4-AF9 inh
C=C1CCN([C@@H](C)C(=O)NCCCCCC)S(=O)(=O)c2ccccc21,-4,-8,0.1,1.2,0,1,11,.,-2.0,-2.3
Cc1cccc(OCc2nnc(SCC(=O)OC3CCCCC3)o2)c1,.,.,.,0.3,-3,-5,-6,17%,2.0,.
CCCCN(C)C(=O)C1CCCN(S(=O)(=O)c2ccc3c(c2)CC(C)N3C(=O)C2CC2)C1 (stereo unspecified),-5,-13,2.4,2.4,-3,0,2,.,1.7,2.4
O=C(CSc1nc2[nH]ncc2c(=O)n1-c1ccccc1)c1ccc2c(c1)OCCO2,.,.,.,-0.7,-3,-3,2,4%,-0.4,.
COCCN1C(=O)N[C@@H](c2ccccc2)[C@@H](C(=O)OC)[C@H]1C,9,15,2.4,1.4,-7,1,-16,.,-0.8,-0.1
O=C(c1ccc(Cl)cc1)C1CCN(C(=O)c2ccccc2)CC1,-21,-22,-0.1,0.1,6,6,-7,.,5.2,0.9
O=C(NC1CC1)c1ccc(S(=O)(=O)NC2CCCCCC2)cc1,.,.,.,-0.4,1,3,0,25%,-0.1,.
CCOC(=O)c1c(NC(=O)c2ccc(S(=O)(=O)N(C)CC3CCCO3)cc2)sc2c1CCN(C)C2 (stereo unspecified),-17,-10,2.7,1.3,-4,0,29,.,1.9,3.9
O=C(c1ccc2c(c1)OCO2)N1CCC(Cc2ccccc2)CC1,-28,-40,-3.4,-0.1,-23,-3,3,.,-0.4,1.2
O=C(NC(Cc1ccccc1)C(=O)O)c1ccc(S(=O)(=O)N2CCCCC2)cc1 (stereo unspecified),-1,9,-1.9,0.9,0,-1,1,1%,2.2,.
Cc1nc(N2CCC(C(N)=O)CC2)c2nnn(Cc3ccccc3)c2n1,.,.,.,-0.1,2,-3,7,11%,0.6,.
O=C(Cc1ccccc1[N+](=O)[O-])OCC(=O)c1ccccc1Br,-16,-11,1.8,0.6,.,2,.,.,.,5.5
O=C(Nc1ccc(Oc2ccc(NC(=O)C3CCCO3)cc2)cc1)C1CCCO1 (stereo unspecified),.,.,.,2.1,-23,-6,-7,3%,-0.2,.
O=C(O)CCNS(=O)(=O)c1ccccc1C(F)(F)F,2,6,-2.0,1.1,-2,0,7,6%,1.3,2.8
Cc1onc(-c2c(Cl)cccc2Cl)c1C(=O)N1C=CC(C(F)(F)F)=NCC1,.,.,.,0.1,11,1,-22,5%,1.8,.
Cc1ccccc1NC(=O)NNC(=O)c1ccc2ccccc2c1,-4,-6,1.0,1.8,17,-16,-9,.,2.2,0.7
O=C(NC1CCCCC1)NC1(C(=O)N2CCN3CCCC3C2)CCCCC1 (stereo unspecified),.,.,.,2.5,-3,-5,-8,?,-2.0,.
Oc1ccc(N2CCN(C(c3ccccn3)c3nnnn3C3CCCC3)CC2)cc1 (stereo unspecified),.,.,.,0.6,-5,-2,-2,?,3.8,.
O=C1NN(c2ccccc2)C(=O)/C1=C\c1ccccc1OCC(=O)N1CCOCC1,.,.,.,0.0,-30,-14,-28,?,5.5,.
C[C@@H]1CN([C@H](C)CO)C(=O)c2cccc(NC(=O)Nc3ccc(F)cc3)c2O[C@H]1CN(C)C(=O)Nc1ccc(C(F)(F)F)cc1,-15&-12,-11&0,-1.2&-2.0,0.1,.,2,.,.,.,6.0&1.9
CCCOC(=O)c1ccc(Oc2c(-c3ccc(O)cc3O)n[nH]c2C)cc1,.,.,.,0.8,-3,3,-15,?,-1.6,.
CC(=O)C(C(C)=O)c1c(Cl)c(O)c(O)c2c(C(=O)c3ccccc3)coc12,.,.,.,-0.5,?,128*,-11,?,1.6,.
COc1ccccc1C(C)NC(=O)c1ccc(S(=O)(=O)NCc2ccco2)cc1 (stereo unspecified),.,.,.,0.5,.,-1,.,-4%,.,-0.1
O=C(O)c1ccccc1NC(=O)C(Cc1ccccc1)N1C(=O)c2ccccc2C1=O (stereo unspecified),-4,-12,4.3,-0.8,-6,-5,18,-2%,?,-0.1
COc1ccc(COCC(O)CN2CCC(C(N)=O)CC2)cc1 (stereo unspecified),12,11,4.7,0.1,1,-3,-3,?,-0.4,-1.8
O=[N+]([O-])c1ccc(CN2CCOCCOCCOCC2)cc1,7,23,4.7,3.2,0,-2,-2,7%,-0.4,-0.3
CN1CCN(C(=O)C2=C[C@@H](c3ccc4c(c3)OCO4)C[C@@H](OCc3ccc(CO)cc3)O2)CC1,10,7,-1.4,0.3,3,0,-11,-8%,-2.7,0.2&3.3
O=c1[nH]c(NCCO)nnc1Cc1ccc(Cl)cc1,-9,-22,2.9,0.7,1,.,-8,3%,-0.8,1.0
Cn1c(CSCc2ccc(F)cc2)nnc1SCC(=O)Nc1cccc(C(=O)O)c1,11,5,1.8,0.3,1,-4,-8,?,?,1.5
Cc1ccccc1NC(=O)CN1C(=O)c2cccnc2Oc2ccc(Cl)cc21,10,15,12,-0.1,13,-5,-11,6%,4.0,1.7
CCN1CCN(Cc2ccc(NC(=O)c3ccc(C)c(NC(=O)c4ccnnc4)c3)cc2C(F)(F)F)CC1,4,8,-1.6,0.0,1,-16,-3,.,-0.2,0.8
CC1CCCN(C(=O)COc2ccc(Nc3ccccc3)cc2)C1 (stereo unspecified),-13,-17,11,0.0,4,-2,8,9%,-2.3,3.5
Cc1ccc2nc(NC(=O)CSCc3ccccc3)sc2c1,.,.,.,-0.6,-3,-5,3,7%,-3.8,.
CC12C(=O)N(Cc3ccco3)C(=O)C1C1c3ccccc3C2c2ccccc21 (stereo unspecified),.,.,.,-0.6,3,2,4,-2%,-1.8,.
CC(=O)c1ccc(Sc2ccccc2N)c([N+](=O)[O-])c1,-16*,4.5*,-1.0*,0.3,12,-4,12,-10%,2.2,5.5
COC(=O)[C@H](Cc1ccc(O)cc1)NC(=O)Cn1ccc(NC(=O)OCc2ccccc2)nc1=O,14,8,-1.9,0.8,.,-3,.,.,.,-0.9
COc1cc(OC)cc(C(=O)NNC(=O)Cc2cccs2)c1,-1,1,-2.1,-0.8,.,-3,.,.,.,-2.9
COc1cccc(/C(O)=C2/C(=O)C(=O)N(CCN(C)C)C2c2ccccn2)c1 (stereo unspecified),.,.,.,0.7,-4,-1,0,5%,?,.
COc1cc(/C=C2\SC(=Nc3cccnc3)NC2=O)cc(OC)c1OC,-5,-6,2.9,-0.7,-4,7,19,2%,-1.7,-2.3
O=C1C2CCCCN2C(=O)N1CCCCN1CCN(c2ccccc2Oc2ccccc2)CC1 (stereo unspecified),-10,-8,1.7,1.0,-15,-8,-8,.,-0.2,8.7

# Only A1 inh and RanGTP-Impb inh (3 entries from above):
Molecule	A1 inh	RanGTP-Impb inh
Cc1ccc2nc(NC(=O)CSCc3ccccc3)sc2c1	-0.6	-3.8
CC12C(=O)N(Cc3ccco3)C(=O)C1C1c3ccccc3C2c2ccccc21 (stereo unspecified)	-0.6	-1.8
CC(=O)c1ccc(Sc2ccccc2N)c([N+](=O)[O-])c1	0.3	2.2

# Compound profiles, from the list above.
# Record of Cc1ccc2nc(NC(=O)CSCc3ccccc3)sc2c1 = Ecoli rRNA inh = .; Ecoli rRNA inh OD600 = .; Ecoli rRNA inh RFP = .; A1 inh = -0.6; Calb FLC = -3; Beta cell apopt = -5; T cruzi inh = 3; Vif A3G = 7%; RanGTP-Impb inh = -3.8; MLL AF4-AF9 inh = .
# Record of COc1cc(OC)cc(C(=O)NNC(=O)Cc2cccs2)c1 = Ecoli rRNA inh = -1; Ecoli rRNA inh OD600 = 1; Ecoli rRNA inh RFP = -2.1; A1 inh = -0.8; Calb FLC = .; Beta cell apopt = -3; T cruzi inh = .; Vif A3G = .; RanGTP-Impb inh = .; MLL AF4-AF9 inh = -2.9

# (listing goes on)
SMILES,Ecoli rRNA inh,Ecoli rRNA inh OD600,Ecoli rRNA inh RFP,A1 inh,Calb FLC,Beta cell apopt,T cruzi inh,Vif A3G,RanGTP-Impb inh,MLL AF4-AF9 inh
Cc1cccc(NC(=O)c2cccc(N3C(=O)CCC3=O)c2)c1,2,7,-2.5,-0.7,4,-2,-11,1%,-1.3,-1.4
c1cncc(-c2nn[nH]n2)c1,.,.,.,0.4,16,-8,-13,21%,4.6,.
Cn1cc(CN2CCC(n3nccc3NC(=O)Cc3ccccc3)CC2)cn1,12,8,-0.6,0.7,-5,5,-4,.,2.8,1.9
CCCCCc1ccc(S(=O)(=O)Nc2cc(C)ccn2)cc1,0,3,-3.7,0.0,11,-3,1,?,0.4,-3.7
CN1CCN(S(=O)(=O)c2cccc(S(=O)(=O)c3ccc(Cl)cc3)c2)CC1,.,.,.,0.1,-15,-5,17,5%,1.3,.
O=S(=O)(NC1CCCCC1)c1ccc(N2CCOCC2)nc1,12,0,-0.7,-0.3,-1,-7,-5,-6%,1.9,-3.2
CC(=O)c1cccc(CN2CCC(n3nccc3NC(=O)CCOc3ccccc3)CC2)c1,1,0,0.3,0.5,-10,8,26,0%,-0.6,-0.4
COc1cc(C2/C(=C(\O)c3ccc4c(c3)CC(C)O4)C(=O)C(=O)N2c2nnc(C)s2)cc(OC)c1OC (stereo unspecified),1,8,-1.4,0.1,.,-7,-6,.,-1.7,1.4
COc1ccccc1-c1sc2ccccc2c1-c1ccc(C(C)=O)cc1,.,.,.,-0.2,6,9,?,.,?,.
CCCCCNC(=O)c1ccc2c(=O)n(CCCOCC)c(=S)[nH]c2c1,-8,2,-2.0,0.3,-2,2,0,-2%,-1.8,-3.8
CC(C)Cc1nc(N2CCN(C(=O)c3ccco3)CC2)c(C#N)c2c1CCC2,.,.,.,1.7,6,1,28,10%,1.3,.
CCCCn1c(N)c(N(CCOC)C(=O)COC(=O)CCOc2ccccc2)c(=O)[nH]c1=O,5,7,-2.4,0.3,-1,.,8,2%,-0.8,0.0
Cc1ccccc1Nc1nc(N)nc(COC(=O)/C=C/c2ccco2)n1,17,13,4.4,-0.5,-32,2,-25,.,0.3,-1.5
O=C(Cn1c(COc2ccccc2)nc2ccccc21)Nc1cccc(Cl)c1,.,.,.,0.4,3,-3,3,-8%,-1.2,.
O=C(c1cn(-c2ccccc2)nc1-c1cccnc1)N1CCCC(C(F)(F)F)C1 (stereo unspecified),4,5,-0.4,0.2,-3,-3,8,5%,11,-1.4
CCOc1ccc(CNCc2ccccc2Cl)cc1,7,-1,-2.0,-0.3,-16,-2,-7,-9%,4.0,?
